# FGF22 binding = FGF22 (human) thermal shift binding; recombinant FGF22 thermal shift, SYPRO orange fluorescence; percent of sucrose octasulfate shift, DMSO zero; calls only at 9.99 µM; 340,000 tested, 1.5% active;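 active = melting point raised past a set limit in the mean and every replicate; inconclusive = no clear call; three in four hits are not shown here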
# Target sequence (Q9HCT0 whole entry, looked up): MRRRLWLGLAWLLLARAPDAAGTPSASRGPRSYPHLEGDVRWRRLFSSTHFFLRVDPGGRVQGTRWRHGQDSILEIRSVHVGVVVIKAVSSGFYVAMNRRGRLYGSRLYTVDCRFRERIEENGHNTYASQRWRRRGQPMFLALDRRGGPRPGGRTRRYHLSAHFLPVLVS
# ALR H2O2 inh = inhibitors of human sulfhydryl oxidase ALR | P55789 | purified ALR, DTT oxidation, H2O2 HRP-luminol luminescence | inhibition, % (no concentration beside the values) | 290,000 tested, 3.8% active;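 active = mean and each replicate at 75% or more; inconclusive = only one of the two met; inactive = neither met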;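 note: stock transfer was 7.5 nL into about 7.5 µL; 0% = neutral wells and 100% = wells with inactivated enzyme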
# Target sequence (P55789 whole entry, looked up): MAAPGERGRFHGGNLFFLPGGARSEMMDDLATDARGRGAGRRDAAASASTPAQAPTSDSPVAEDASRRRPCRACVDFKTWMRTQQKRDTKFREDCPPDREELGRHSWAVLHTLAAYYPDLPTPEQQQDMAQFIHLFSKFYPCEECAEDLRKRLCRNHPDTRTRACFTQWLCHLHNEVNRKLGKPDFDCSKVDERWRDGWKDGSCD
# Ecoli rRNA inh = inhibitors of bacterial rRNA selective over humanized ribosomes | GFP signal change (wild-type ribosome), % (test concentration not listed) | AID 720706 | 350,000 tested, 1.6% active | E. coli WT GFP vs humanized-ribosome RFP mutants, fluorescence, 24 h; active compounds read low; DMSO median 0, no signal -100;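 active = significant combined selectivity score with lowered wild-type GFP, culture density cut under 30%, mutant RFP and density less affected; inactive = any of these conditions unmet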; note: one replicate is shown; some compounds called inactive have numbers as strong as hits
# Beta apoptosis = blocks beta cell apoptosis | INS-1E cytokine-induced death, ATP luminescence, 48 h; percent of positive-control rescue, neutral wells zero | 300,000 tested, 0.8% active | protection from apoptosis, % (no concentration beside the values);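 active = all replicates at 75% or more, or half of them and the mean; inconclusive = half reach 75% but not the mean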;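 note: 0% = cytokine-treated negative control wells and 100% = positive control rescue; higher means more ATP so stronger rescue from cytokine killing; wells of about 40 µL received 100 nL stock; the first replicate is given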
# Calb FLC = affects C. albicans growth with fluconazole; AID 1979; C. albicans CaCi-2 (fluconazole-resistant clinical isolate) + fluconazole, Alamar Blue growth, 48 h; 300,000 tested, 0.57% active; growth inhibition, % (test concentration not listed);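 active = most replicates above 75%; inconclusive = exactly half above 75%; inactive = most below 75%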;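 note: all wells also contain fluconazole at 8 µg/ml as a sub-toxic cotreatment; 0% = median of DMSO wells and 100% = median of geldanamycin control wells; wells of about 8 µL received 7.5 nL stock; the first replicate is given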
# T cruzi inh = blocks replication of Trypanosoma cruzi | AID 1885 | T. cruzi beta-gal in NIH3T3, luminescence, 90 h | 300,000 tested, 1.4% active | inhibition, % (concentration not given with the values);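 active = mean inhibition across valid replicates above about 55%, limit read from the data; inconclusive = mean below that limit but half or more replicates reach it; inactive = mean below it, under half of replicates reach it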;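 note: signal also drops with host cell toxicity which is not excluded here; 0% = plate median of DMSO wells and 100% = zero luminescence signal; higher percent means less beta-gal luminescence so fewer parasites; stock transfer was 50 nL into about 50 µL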
# RanGTP-Impb inh = disruptors of Ran-importin-beta complex formation – biochemical, FRET, CFP-Ran, YFP-importin-beta, homogeneous, primary screen | cell-free CFP-Ran/YFP-importin-beta FRET ratio | inhibition, % (no concentration beside the values) | 300,000 tested, 1.1% active;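 active = most replicates above 15%; inconclusive = exactly half above 15%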;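 note: 0% = DMSO wells and 100% = Ran loaded with GDP instead of GTP; wells of about 40 µL received 100 nL stock; the first replicate is given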
# AF4-AF9 inh = MLL-AF4/AF9 protein interaction inhibition; P42568; AlphaScreen, biotin-AF4 peptide binding to FLAG-AF9; inhibition, % at 10 µM; 350,000 tested, 0.47% active;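 active = every replicate reaching a set inhibition limit, whatever the replicate mean, cut at about 25% in these data; inconclusive = mean inhibition reaches that limit but some replicates miss it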;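 note: 0% = plate neutral control median and 100% = total signal loss; the record names both 10 and 1 µM as test concentration; the first replicate is given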
# Target sequence (P42568 whole entry, looked up): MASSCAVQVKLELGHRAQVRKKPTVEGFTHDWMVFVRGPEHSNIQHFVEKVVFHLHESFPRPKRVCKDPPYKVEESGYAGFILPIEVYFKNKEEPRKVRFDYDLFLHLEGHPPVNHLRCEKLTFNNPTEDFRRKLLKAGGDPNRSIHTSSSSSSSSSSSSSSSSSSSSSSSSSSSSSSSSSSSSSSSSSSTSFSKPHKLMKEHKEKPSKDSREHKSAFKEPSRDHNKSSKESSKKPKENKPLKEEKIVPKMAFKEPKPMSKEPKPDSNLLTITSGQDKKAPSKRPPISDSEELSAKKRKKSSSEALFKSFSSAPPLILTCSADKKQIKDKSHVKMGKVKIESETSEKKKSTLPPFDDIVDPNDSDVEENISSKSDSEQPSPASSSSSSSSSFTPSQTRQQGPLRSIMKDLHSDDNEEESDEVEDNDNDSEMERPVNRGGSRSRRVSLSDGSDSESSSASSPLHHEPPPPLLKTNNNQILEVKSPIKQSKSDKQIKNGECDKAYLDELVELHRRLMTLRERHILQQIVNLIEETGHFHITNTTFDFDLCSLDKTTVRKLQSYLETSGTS
# Ecoli rRNA inh OD600 = second read-out of Ecoli rRNA inh, no call of its own (marks repeat the call); OD600 change, %; measured here: OD600 growth;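 optical density of the mix in the first replicate; 0 = DMSO median and -100 = no signal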
# Ecoli rRNA inh RFP = second read-out of Ecoli rRNA inh, no call of its own (marks repeat the call); RFP signal change, %; measured here: RFP humanized mutant strains;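 first replicate; 0 = DMSO median and -100 = no signal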
# Numbers without * were called inactive; i = inactive; ? = inconclusive; . = not tested or not shown; & = joins results of further samples. This is a subset (hit frequency here may not be typical).
SMILES,FGF22 binding,ALR H2O2 inh,Ecoli rRNA inh,Ecoli rRNA inh OD600,Ecoli rRNA inh RFP,Beta apoptosis,Calb FLC,T cruzi inh,RanGTP-Impb inh,AF4-AF9 inh
Cc1nc(NCC2CCCO2)c2nnn(Cc3ccccc3Cl)c2n1 (centres undefined),i,0,13,5,-3.5,5,-1,21,2.3,1.4
Cc1cc(NC(=O)CSc2nc(C(C)C)nc3sc(C)c(C)c23)no1,i,-7,13,3,-2.3,7,15,-4,-1.1,4.6
Cc1cccc(OCCSc2nc3ccccc3n2CC(=O)O)c1,i,5,4,-7,2.1,.,-1,-20,2.9,0.1
Cc1cc(C)c(O)c(-c2cc(C(=O)Nc3cccnc3)[nH]n2)c1,i,98*,-33*,-26*,-5.7*,-4,-9,-13,-3.2,-4.5
C/C(=N\NC(=S)NCCc1ccccc1)c1ccc(C)cc1,.,-10,.,.,.,-2,-1,14,2.8,.
COc1ccc2c(c1)CCc1c(C(=O)N3CCCc4ccccc43)noc1-2,.,-14,.,.,.,-4,13,11,-10.0,.
O=C(CC1S/C(=N/N=C2CCCCCC2)NC1=O)Nc1ccccc1F (centres undefined),i,.,0,-2,0.8,.,8,2,-2.9,-0.7
Cc1ccc(-c2cc(-c3nnc(SCC(=O)NC(C)C(C)C)n3N)c3ccccc3n2)cc1 (centres undefined),i,.,9,4,-2.8,.,-3,8,-1.9,2.6
O=C(COC(=O)c1ccco1)NCc1ccc(Cl)cc1,i,12,12,-2,1.5,-5,6,-13,1.4,-4.1
N#CCC(N)=C(C#N)C#N,i,0,12,12,9.5,.,.,1,3.9,-0.7
COc1ccc(OC(=O)c2cc(S(=O)(=O)N3CCCC3)ccc2Cl)cc1,i,13,-9,-10,2.5,1,-8,-16,6.7,-47
COc1ccc(CNC(=S)Nc2ccccc2C)cc1,.,29,.,.,.,1,3,-3,-2.3,.
Cn1c(=O)c2c(nc(NCC3CCCO3)n2Cc2cccc(Br)c2)n(C)c1=O (centres undefined),.,28,.,.,.,-4,2,8,-1.4,.
CCOCC(=O)Nc1c(C(=O)Nc2ccc3c(c2)OCO3)oc2ccccc12,i,-2,1,22,-3.7,4,7,22,2.3,-0.7
COc1ccc(N2COC3c4cccc5cccc(c45)C32)cc1 (centres undefined),.,20,.,.,.,22,0,-7,-2.2,.
Cc1cccc(C(=O)NNC(=O)Nc2ccccc2)c1,i,13,18,19,0.7,-2,-19,-6,-2.1,0.5
COc1cccc(-c2nnc(SCC(=O)Nc3ccc4c(c3)OCCO4)n2Cc2ccco2)c1,.,-5,.,.,.,0,?,1,6.2,.
CCc1nnc(NC(=O)CN2CCN(Cc3ccccc3Cl)CC2)s1,i,-18,1,6,-0.2,-7,1,36,7.8,-1.1
CCOc1ccc(CCNC(=O)CS(=O)(=O)Cc2nc(-c3cccc(OC)c3)oc2C)cc1,i,-9,5,-1,-3.6,3,-4,-2,-2.2,-2.7
COc1ccc(-c2c(-c3ccc(OCC(=O)NN)cc3O)n[nH]c2C(F)(F)F)cc1,.,70,.,.,.,4,6,-18,1.1,.
COc1cccc(NC(=O)[C@@H]2CCCN2S(=O)(=O)c2cccc3cccnc23)c1,i,-23,-4,-4,-1.8,-2,.,.,.,-68
Cc1cc(=O)n(CC(=O)NCCN2CCOCC2)c2c1c(C)nn2-c1ccccc1,.,-4,.,.,.,0,1,-14,-0.2,.
COc1cc(CNC2CCCC2)cc(Br)c1OCC(=O)Nc1ccccc1C,i,-1,6,1,0.4,2,-1,27,-3.6,-1.8
O=C(NCCS(=O)(=O)NCCCc1ccccc1)c1ccccc1,i,2,-5,-7,-0.8,1,3,-7,5.1,-23
CC(C)(C)CC(C)(C)NC1=CC(=O)OC12CCCCC2,.,-4,.,.,.,13,-7,-9,7.5,.
COc1ccc(C(=O)O)cc1S(=O)(=O)NC(C)(C)C,i,-6,15,10,17,-5,4,0,2.7,-8.6
COc1ccc(OC)c(-n2cnnn2)c1,.,-4,.,.,.,.,-14,-13,-3.3,.
COc1ccc(S(=O)(=O)N2CCC(C(=O)N[C@@H](C)C(=O)NCc3ccc(F)cc3)CC2)cc1,i,6,4,0,-0.7,-1,1,-2,1.5,-2.4
CCOc1ccccc1CNC(=O)c1ccc(NC(=O)C2=C(C)OCCS2)cc1,i,-4,-5,-19,0.2,-2,39,15,-3.1,1.3
Cc1ccc(S(=O)(=O)N2CCN(C(=O)CSc3cc(C)ccc3C)CC2)c(C)c1,i,-12,-22,-38,-3.5,-2,7,13,0.6,0.1
Cc1sc2ncnc(NCCc3ccc(S(N)(=O)=O)cc3)c2c1C,.,-6,-2,-1,2.9,93*,?,-27,-2.3,.
CC(C)(C)C1=CC=C(C(C)(C)C)C(=O)C1=O,.,0,.,.,.,-4,37,.,-0.8,.
Cc1cc(C(=O)NCCc2ccc(Cl)cc2)c2ccccc2n1,i,-10,-13,-9,3.2,-2,6,1,0.7,0.5
Cc1ccc(C(=O)CC(=O)c2ccc(C(C)(C)C)cc2)cc1,i,0,10,8,-0.7,0,108*,-24,5.0,-1.1
CN1CCN(NC(=O)c2cc(-c3ccc(Cl)s3)nc3ccccc23)CC1,i,-4,2,13,-1.8,11,13,12,0.0,3.1
CCCOc1ccc(N2C(=O)CC(N3CCN(c4ccccc4F)CC3)C2=O)cc1 (centres undefined),i,-3,7,5,-2.7,3,-10,7,-5.5,-1.5
C=CCCO[C@@H]1O[C@@H](C)[C@H](O)C[C@H]1O,i,2,8,11,2.4,-6,.,.,.,.
CSc1c(C#N)c(N)nc2sc(C(=O)c3ccccc3)c(N)c12,i,6,6,2,1.6,6,7,?,-17,-0.2
COc1cccc(-c2cc3c(=O)n(-c4ccccc4)c(=S)[nH]c3s2)c1,.,1,.,.,.,1,-3,-13,-1.5,.
N#Cc1c(NC(=O)CSc2ccccn2)oc(-c2ccccc2)c1-c1ccccc1,.,.,.,.,.,-7,15,12,-1.3,.
CN(C(=O)/C=C/c1cnc2ccccc2c1)C1CCCCC1,.,-20,-34,-34,-4.4,-1,10,14,3.5,4.4
Cc1ccc(S(=O)(=O)C2(C(=O)Nc3cccnc3)CC2)cc1,i,.,-7,-10,0.0,-2,-6,-8,-4.2,0.8
COc1ccccc1CC(=O)O/N=C(\N)c1ccccn1,i,-2,2,5,4.1,-3,-2,-12,-4.2,1.1
CC(C)N(C(=O)CSc1nnc(CNc2ccc(F)cc2)o1)C(C)C,.,0,.,.,.,-4,-8,3,-0.2,.
Cn1c(=O)c2c(nc(Br)n2CC(=O)C23CC4CC(CC(C4)C2)C3)n(C)c1=O,.,20,.,.,.,3,-7,-21,-3.5,.
COC(=O)c1sc(NC(=O)CSc2nnnn2C)nc1C,i,-4,10,17,-1.0,-6,-11,-10,0.5,-2.2
COCCCN1CN(S(=O)(=O)c2cccs2)c2nc3ccccc3nc21,i,10,4,-2,4.3,-4,4,-10,1.5,-2.9
COC(=O)C1C(=O)C=C(N2CCOCC2)CC1(C)C (centres undefined),.,-4,.,.,.,2,2,-1,0.7,.
COc1ccc(NC(=S)NCCCCCC(=O)C[N+](=O)[O-])cc1,i,-15,1,5,-3.0,-6,-3,-1,-2.2,-1.7
Cc1ccc2c(CSc3nncs3)cc(=O)oc2c1,i,-1,-5,3,0.2,-17,1,-7,2.0,0.5
COc1nc(NC2CCCCC2)nc(N2CCCCCC2)n1,.,1,.,.,.,29,0,41,-3.3,.
C#CCOCCOCCOCCNc1nc(N2CCN(C(=O)C([C@@H](C)CC)n3cc(C(N)CO)nn3)CC2)nc(N2CCN(C(=O)C([C@@H](C)CC)n3cc(C(N)COC(=O)C(F)(F)F)nn3)CC2)n1 (some centres undefined),i,-4,2,15,1.4,-3,3,-9,-2.6,4.0
CCN(CC)S(=O)(=O)c1ccc(C(=O)OCC(=O)Nc2ccc(-c3nc4ccc(C)cc4s3)cc2)cc1,i,-12,16,10,-5.2,1,-1,1,-0.3,6.6
COC(=O)C[C@H]1c2cc(C(F)(F)F)ccc2S(=O)(=O)N1C1CCCCC1,.,5,.,.,.,5,-2,-10,5.1,.
O=C(Nc1nc(-c2ccc(F)cc2)cs1)c1ccc(N2C(=O)CCC2=O)cc1,i,4,1,8,-2.1,.,-1,-1,?,-0.5
Nc1c(C(=O)Nc2cccc(Cl)c2Cl)sc2nc(-c3cccnc3)ccc12,i,-16,5,2,-2.1,3,3,-9,-12,0.7
O=C(Cn1cnc2c(cnn2-c2ccccc2)c1=O)c1ccc(Cl)cc1,i,-7,6,7,-2.6,-1,-5,12,2.1,2.1
Cc1noc(C)c1COc1ccccc1C(=O)N1CCN(S(=O)(=O)c2ccccc2C(F)(F)F)CC1,i,-12,-4,-9,1.6,1,-3,25,-0.4,4.0
CCCCNc1c(-c2cccc(SC3CCCCC3)c2)nc2ccc(Cl)cn12,i,2,-9&-7,-11&0,4.6&5.6,.,14,39,5.4,8.3&3.4
COC(=O)C1C(=O)c2c([nH]c(C(=O)OC3CCCC3)c2C)CC1C (centres undefined),.,-12,.,.,.,3,-6,2,1.7,.
# New compounds follow.
SMILES,FGF22 binding,ALR H2O2 inh,Ecoli rRNA inh,Ecoli rRNA inh OD600,Ecoli rRNA inh RFP,Beta apoptosis,Calb FLC,T cruzi inh,RanGTP-Impb inh,AF4-AF9 inh
O=C(c1ccc(C(=O)N2CCCc3ccccc32)nc1)N1CCCc2ccccc21,i,1,2,1,-0.6,2,3,-8,-0.9,9.6
S=c1[nH]c(-c2cccs2)cn1-c1ccccc1,i,74,-1,-5,-0.1,.,-7,0,2.3,0.2
CC1(NC(=O)c2cc(Cl)nc3ccccc23)CCS(=O)(=O)C1 (centres undefined),i,-5,9,16,-1.9,-1,.,.,.,0.8
CCOC(=O)C1=C(CN2CCN(C(=O)c3ccco3)CC2)NC(=O)NC1c1ccc(C)cc1 (centres undefined),i,-6,2,-10,-1.6,-1,13,-5,?,-8.2
O=C(N/N=C/c1c[nH]c2ccc(Br)cc12)c1ccccn1,i,15,-32,-38,-2.9,5,-3,-14,-2.8,2.1
Cc1ccc(C(=O)N/C(=C/c2ccc(C(C)C)cc2)C(=O)NCCCN2CCOCC2)cc1,i,-5,4,9,1.0,6,35,21,2.0,-1.2
O=C(NCC1CCCO1)C(c1ccc(F)cc1)N(Cc1ccc(F)cc1)C(=O)Cn1nnc(-c2cccs2)n1 (centres undefined),.,-5,.,.,.,8,104*,14,4.4,.
C[C@@H]1COC(=O)[C@@H](CC(=O)OC(C)(C)C)C/C=C\C[C@H](CC(=O)NCCO)C(=O)N1,i,3,1,-2,6.4,-8,.,.,.,1.5
CC(=O)Nc1ccc2c(c1)N(C(=O)CN(C)C)c1ccccc1CC2,.,-13,.,.,.,-5,-1,-11,1.3,.
CCCc1noc2c1C(c1ccoc1)C(C#N)=C(N)N2 (centres undefined),.,13,.,.,.,-1,4,-9,4.1,.
CC(=O)c1cccc(S(=O)(=O)N2CCN(c3nc4cc(C)cc(C)c4cc3C#N)CC2)c1,.,1,-4,-7,9.5,6,0,?,4.5,.
